Source: PubChem BioAssay
Vaccinia stage = blocks a specific stage of Vaccinia orthopoxvirus infection | Vaccinia-infected cells, mCherry/Venus stage reporter fluorescence; stronger effect = lower value; some inactives read as strong as hits | activity change (mCherry), % (test concentration not listed) | 89,000 compounds, 0.01% hits | AID 1053133;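 active means mCherry past -33% and 40 or more points under the early reporter, replicates agreeing; inconclusive means past -33% without that gap or agreement; tested in A549 cells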;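 further: scaled between vehicle wells and reference inhibitor wells; 23 nL library stock went into each well; one replicate is shown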
Vaccinia stage Venus = further read-out of Vaccinia stage, marked with its call; activity change (Venus), %; measured here: Venus reporter, other viral stage;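 negative = less Venus signal; first of two replicates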
* marks the source's active call; other numbers are inactive results; ? = inconclusive; . = no result given. Only part of the results is shown; rates above refer to the full screens.

The first two records, ahead of the listing:
[1] COc1ccc(CN(C)C[C@H]2Oc3ccc(NC(=O)CCN4CCOCC4)cc3C(=O)N([C@H](C)CO)C[C@@H]2C)cc1
[2] CCC(=O)N1CCC2(CC1)CN(S(=O)(=O)c1ccccc1)[C@H](CO)c1[nH]c3cc(OC)ccc3c12
screen / no.,1,2
Vaccinia stage,5,17
Vaccinia stage Venus,6,0

The listing, previewed entries included:
[1] COc1ccc(CN(C)C[C@H]2Oc3ccc(NC(=O)CCN4CCOCC4)cc3C(=O)N([C@H](C)CO)C[C@@H]2C)cc1
[2] CCC(=O)N1CCC2(CC1)CN(S(=O)(=O)c1ccccc1)[C@H](CO)c1[nH]c3cc(OC)ccc3c12
[3] C/C=C/c1ccc([C@H]2[C@@H](C#N)N(C(=O)CN3CCOCC3)[C@H]2CO)cc1
[4] C[C@@H]1CN([C@H](C)CO)C(=O)c2cc(-c3cccnc3)cnc2O[C@H]1CN(C)C(=O)C1CCOCC1
[5] CC(C)NC(=O)Nc1ccc2c(c1)C(=O)N([C@@H](C)CO)C[C@@H](C)[C@@H](CN(C)Cc1ccncc1)OCCCC[C@@H](C)O2
[6] COc1ccc(-c2cn(CC[C@H]3CC[C@@H](NC(=O)CCN4CCCCC4)[C@@H](CO)O3)nn2)cc1
[7] O=C([C@@H]1[C@@H](CO)[C@@H]2Cn3c(ccc(-c4cccnc4)c3=O)[C@H]1N2CC1CC1)N1CCCCC1
[8] C[C@@H]1CN([C@H](C)CO)C(=O)c2cc(NC(=O)Cc3ccccc3)ccc2O[C@@H](C)CCCCO[C@@H]1CN(C)Cc1ccccc1
screen / no.,1,2,3,4,5,6,7,8
Vaccinia stage,5,17,8,8,11,2,10,?
Vaccinia stage Venus,6,0,1,2,-3,3,7,.

[9] CCCNC(=O)N1CC2(CCN(C(=O)Cc3cccnc3)CC2)c2c([nH]c3cc(OC)ccc23)[C@H]1CO
[10] CC(C)NC(=O)Nc1cccc2c1O[C@@H](CN(C)C(=O)Nc1ccccc1)[C@@H](C)CN([C@@H](C)CO)C2=O
[11] C[C@@H]1CN([C@H](C)CO)C(=O)c2cc(-c3cccc(C#N)c3)cnc2O[C@H]1CN(C)Cc1ccc(F)cc1
[12] CO[C@@H]1CN(C)C(=O)c2cc(NC(=O)Nc3ccccc3F)ccc2OC[C@@H](C)N(C(C)=O)C[C@H]1C
[13] C[C@@H]1CN([C@@H](C)CO)C(=O)c2cccc(NC(=O)C3CCOCC3)c2O[C@@H]1CN(C)S(C)(=O)=O
[14] O=C(C[C@H]1C=C[C@@H](NC(=O)Nc2cc(F)ccc2F)[C@@H](CO)O1)NCCCN1CCOCC1
[15] CC(=O)N1[C@@H]2c3ccc(C4=CCCC4)c(=O)n3C[C@@H]2[C@@H](CO)[C@@H]1C(=O)N1CCCCC1
[16] O=C(Cc1ccncc1)Nc1ccc2c(c1)[C@@H]1C[C@@H](CC(=O)N3CCCCC3)O[C@H](CO)[C@@H]1O2
screen / no.,9,10,11,12,13,14,15,16
Vaccinia stage,3,-6,2,7,17,1,11,17
Vaccinia stage Venus,5,2,2,7,20,6,8,11

[17] CCCNC(=O)N[C@@H]1CC[C@@H](CCn2cc(-c3cccc(F)c3)nn2)O[C@H]1CO
[18] CC(=O)N(C)C[C@@H]1Oc2ncc(C3=CCCC3)cc2C(=O)N([C@H](C)CO)C[C@@H]1C
[19] C[C@@H]1CN([C@@H](C)CO)S(=O)(=O)c2ccc(-c3ccc(F)cc3)cc2O[C@H]1CN(C)C(=O)c1ccccc1F
[20] O=S(=O)(N[C@H]1CC[C@H](CCn2cc(C3(O)CCCC3)nn2)O[C@H]1CO)c1ccc(F)cc1
[21] C[C@@H]1CN([C@H](C)CO)C(=O)c2cc(-c3ccccc3)cnc2O[C@H]1CN(C)C(=O)Nc1ccccc1F
[22] COCC(=O)Nc1ccc2c(c1)C(=O)N(C)[C@@H]1CC[C@H](CC(=O)NCc3ccccc3F)O[C@@H]1CO2
[23] O=C(C[C@H]1CC[C@@H]2[C@H](COC[C@H](O)CN2C(=O)Nc2ccc(Cl)c(Cl)c2)O1)NCc1ccccc1
[24] CCCNC(=O)N(C)C[C@@H]1Oc2ncc(-c3ccncc3)cc2C(=O)N([C@@H](C)CO)C[C@H]1C
screen / no.,17,18,19,20,21,22,23,24
Vaccinia stage,3,11,-30,-2,19,-1,-28,4
Vaccinia stage Venus,11,8,-22,-7,4,6,-24,8

[25] O=C(c1cccnc1)N1C[C@@H]2[C@H](c3ccccc31)[C@H](CO)N2C(=O)Nc1cccc(F)c1
[26] CNC[C@H]1Oc2c(NC(=O)Nc3ccc(F)cc3)cccc2C(=O)N([C@H](C)CO)C[C@@H]1C
[27] C[C@H]1CN([C@@H](C)CO)C(=O)c2cc(-c3ccc(F)cc3)cnc2O[C@H]1CN(C)C(=O)c1cccnc1
[28] O=C(Nc1ccc(Cl)cc1)N[C@@H]1CC[C@H](CCNS(=O)(=O)c2ccccc2F)O[C@H]1CO
[29] CN(C)CC(=O)N[C@H]1CC[C@@H](CCNC(=O)C2CCC2)O[C@H]1CO
[30] C[C@H]1CN([C@@H](C)CO)C(=O)CCCn2nncc2CO[C@@H]1CN(C)C(=O)Nc1ccc2c(c1)OCCO2
[31] CCCNC(=O)[C@@H]1[C@@H](CO)[C@@H]2Cn3c(ccc(C4=CCCC4)c3=O)[C@H]1N2Cc1ccncc1
[32] Cc1ccc(S(=O)(=O)N(C)C[C@H]2Oc3ccc(NC(=O)Nc4cccc5ccccc45)cc3CC(=O)N([C@H](C)CO)C[C@@H]2C)cc1
screen / no.,25,26,27,28,29,30,31,32
Vaccinia stage,1,16,11,-6,0,-3,3,5
Vaccinia stage Venus,15,3,0,2,-8,1,12,3

[33] Cc1cccc(S(=O)(=O)N2CC[C@@H]3[C@H](CO)N(C)c4ccc(-c5ccc(C#N)cc5)cc4[C@@H]32)c1
[34] CO[C@@H]1CN(C)C(=O)c2ccc(NS(=O)(=O)c3ccc(C)cc3)cc2OC[C@@H](C)N(C)C[C@H]1C
[35] CCCNC(=O)N1[C@H](CO)[C@@H](c2ccccc2)C12CN(C(=O)c1cccnc1)C2
[36] O=C(C[C@@H]1C=C[C@H](NC(=O)Nc2cccc(F)c2)[C@H](CO)O1)NCC1CCCCC1
[37] C[C@H](CO)N1C[C@H](C)[C@@H](CN(C)Cc2ccc(C(=O)O)cc2)Oc2c(NC(=O)c3ccc(-c4nccs4)cc3)cccc2C1=O
[38] O=C(N[C@@H]1CC[C@H](CCn2cc(C3CCCCC3)nn2)O[C@@H]1CO)c1cccnc1
[39] COc1ccc(CN(C)C[C@H]2OCc3cnnn3CCCC(=O)N([C@H](C)CO)C[C@@H]2C)cc1
[40] Cc1ccc(S(=O)(=O)N(C)C[C@@H]2Oc3c(NC(=O)C4CCCCC4)cccc3C(=O)N([C@H](C)CO)C[C@@H]2C)cc1
screen / no.,33,34,35,36,37,38,39,40
Vaccinia stage,1,-6,8,-8,26,-3,-1,-18
Vaccinia stage Venus,1,-4,10,2,10,-2,9,-14

Record cards, from the list above. Values in the order: Vaccinia stage | Vaccinia stage Venus
CCCNC(=O)N1[C@H](CO)[C@@H](c2ccccc2)C12CN(C(=O)c1cccnc1)C2 reads 8 | 10
Cc1ccc(S(=O)(=O)N(C)C[C@@H]2Oc3c(NC(=O)C4CCCCC4)cccc3C(=O)N([C@H](C)CO)C[C@@H]2C)cc1 reads -18 | -14

(cont.)
[41] CCCNC(=O)N1[C@H](CO)[C@H](c2ccccc2)[C@@H]1CNC(=O)C1CC1
[42] COCC(=O)Nc1ccc2c(c1)C(=O)N(C)C[C@H](OC)[C@H](C)CN(C(=O)c1ccccc1F)[C@@H](C)CO2
[43] C[C@@H]1CN([C@H](C)CO)C(=O)c2cc(NS(=O)(=O)c3ccc(F)cc3)ccc2O[C@@H](C)CCCCO[C@H]1CN(C)Cc1ccc(Cl)c(Cl)c1
[44] O=C(CN1CCOCC1)N[C@@H]1CC[C@H](CCn2cc(C3CCCC3)nn2)O[C@@H]1CO
[45] O=C(O)C1=C[C@@H](c2ccc(Br)cc2)C[C@@H](OCc2ccc(CO)cc2)O1
[46] C[C@@H]1CCCCO[C@@H](CN(C)C(=O)Nc2ccc(F)cc2)[C@@H](C)CN([C@@H](C)CO)C(=O)c2cc(NC(=O)CCCN(C)C)ccc2O1
[47] C[C@@H]1CN([C@H](C)CO)S(=O)(=O)c2ccc(/C=C/c3ccccc3)cc2O[C@H]1CN(C)C(=O)NC1CCCCC1
[48] CO[C@@H]1CN(C)C(=O)c2ccc(NC(=O)C3CC3)cc2OC[C@@H](C)N(C(=O)CN(C)C)C[C@@H]1C
screen / no.,41,42,43,44,45,46,47,48
Vaccinia stage,30,32,?,10,11,13,?,8
Vaccinia stage Venus,29,22,.,9,1,15,.,12

[49] C[C@H](CO)N1C[C@H](C)[C@H](CN(C)C(=O)CN(C)C)Oc2ncc(/C=C/c3ccccc3)cc2C1=O
[50] O=C(Nc1ccc2c(c1)[C@H]1C[C@H](CC(=O)N3CCCCC3)O[C@H](CO)[C@H]1O2)c1cccnc1
[51] COc1ccc(CN(C)C[C@H]2OCCCC[C@@H](C)Oc3ccc(NC(=O)Nc4ccc(OC)cc4)cc3C(=O)N([C@H](C)CO)C[C@@H]2C)cc1
[52] O=C(Nc1ccc2c(c1)[C@@H]1C[C@@H](CC(=O)N3CCc4ccccc4C3)O[C@H](CO)[C@@H]1O2)c1ccc2c(c1)OCO2
[53] C[C@H]1CN([C@@H](C)CO)S(=O)(=O)c2ccc(C3=CCCCC3)cc2O[C@@H]1CN(C)C(=O)CN(C)C
[54] CN(C)CC#Cc1ccc([C@@H]2[C@H](CO)N3C(=O)CN(C(=O)c4cccc(F)c4)C[C@@H]23)cc1
[55] Cc1cccc(S(=O)(=O)N(C)C[C@H]2OCc3ccccc3-c3ccccc3C(=O)N([C@H](C)CO)C[C@H]2C)c1
[56] N#Cc1ccc(-c2ccc([C@@H]3[C@@H](CO)N4CCCCN(S(=O)(=O)c5ccccc5)C[C@H]34)cc2)cc1
screen / no.,49,50,51,52,53,54,55,56
Vaccinia stage,6,25,-17,-16,-34,5,-16,9
Vaccinia stage Venus,1,19,-21,-6,-31,6,-18,2

[57] CN1C(=O)c2cc(NC(=O)c3ccc(F)c(F)c3)ccc2OC[C@H]2O[C@@H](CC(=O)N[C@@H]3CCN(Cc4ccccc4)C3)CC[C@@H]21
[58] CC(C)NC(=O)Nc1cccc2c1O[C@@H](CN(C)C(=O)Nc1ccc(C(F)(F)F)cc1)[C@@H](C)CN([C@H](C)CO)C2=O
[59] Cc1ccc(S(=O)(=O)N(C)C[C@@H]2Oc3ccc(NS(C)(=O)=O)cc3CC(=O)N([C@H](C)CO)C[C@H]2C)cc1
[60] Cc1cc(C(=O)Nc2cccc3c2O[C@H](CN(C)Cc2ccc(-c4ccccc4)cc2)[C@@H](C)CN([C@H](C)CO)C3=O)n(C)n1
[61] CNC[C@@H]1Oc2ccc(NC(=O)Nc3ccc4c(c3)OCO4)cc2CC(=O)N([C@@H](C)CO)C[C@@H]1C
[62] CO[C@H](CN(C)S(=O)(=O)c1ccc(C)cc1)[C@@H](C)CN(C(=O)Nc1ccccc1F)[C@H](C)CO
[63] O=C(c1ccccc1F)N1CC(=O)N2[C@@H](CO)[C@H](c3ccc(C#Cc4ccc(F)cc4)cc3)[C@@H]2C1
[64] O=C(C[C@H]1C=C[C@H](NC(=O)C2CCC2)[C@@H](CO)O1)NCc1ccncc1
screen / no.,57,58,59,60,61,62,63,64
Vaccinia stage,-19,-21,9,?,9,0,-8,14
Vaccinia stage Venus,-6,-8,4,.,11,3,-4,7

[65] C[C@@H]1CN([C@@H](C)CO)C(=O)c2cc(NC(=O)Nc3ccc(C(F)(F)F)cc3)ccc2O[C@H]1CN(C)C(=O)Nc1ccccc1
[66] COc1cccc(CNC(=O)C[C@@H]2CC[C@@H]3[C@@H](COc4ccc(NC(=O)c5cccs5)cc4C(=O)N3C)O2)c1
[67] C[C@H](CO)N1C[C@H](C)[C@H](CN(C)S(=O)(=O)c2ccc(F)cc2)Oc2ccc(NC(=O)CCCCCC(=O)Nc3ccccc3N)cc2CC1=O
[68] CO[C@H]1CN(C)C(=O)c2cc(NS(=O)(=O)CC(F)(F)F)ccc2OC[C@@H](C)N(Cc2cccnc2)C[C@H]1C
[69] O=S(=O)(c1ccc(Cl)cc1)N1CCN(Cc2cccc(OCCO)c2)CC1
[70] O=C(CCN1CCCCC1)N[C@@H]1CC[C@@H](CCn2cc(-c3ccc(F)cc3)nn2)O[C@H]1CO
[71] COc1cccc(S(=O)(=O)N(C)C[C@H]2OCc3ccccc3-c3ccccc3C(=O)N([C@@H](C)CO)C[C@H]2C)c1
[72] O=C(C[C@H]1CC[C@H](NC(=O)C2CC2)[C@H](CO)O1)NCC1CC1
[73] CCC(=O)N1CCCCN2[C@H](CO)[C@@H](c3ccc(C#Cc4ccccc4)cc3)[C@@H]2C1
[74] C[C@@H]1CN([C@H](C)CO)C(=O)CCCn2nncc2CO[C@@H]1CN(C)Cc1ccc2c(c1)OCCN2C
[75] Cn1cnc(S(=O)(=O)N[C@H]2CC[C@@H](CC(=O)Nc3ccc(-c4ccccc4)cc3)O[C@@H]2CO)c1
screen / no.,65,66,67,68,69,70,71,72,73,74,75
Vaccinia stage,-11,-13,0,4,-18,-5,?,6,?,11,1
Vaccinia stage Venus,-5,-9,0,8,-7,-3,.,4,.,7,7
